Assay outcomes: PubChem BioAssay, ICCB-Longwood Screening Facility, Harvard Medical School
Anaer choline gr: inhibitors of anaerobic choline-dependent gram-negative bacterial growth; Gram-negative bacterium anaerobic choline minimal medium, absorbance growth; stronger effect = lower value; many inactives read as strong as hits in the columns shown; calls only; 55,000 compounds, 0.2% hits;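 active = growth z-score on choline under -2 at 7 or 20 h with little or no fall on glycerol, limits in tiers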;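 note: stock transfer was 300 nL into about 50 µL; the organism is E. coli; final concentration not given here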
Anaer choline gr early: also measured in Anaer choline gr; calls as there; z-score; measured here: choline growth z-score, timepoint 1;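 score of optical density at 7 h as mean of two plates; lower means less growth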
Numbers without * were called inactive; i = inactive; & = joins results of further samples. Some of the compounds tested; the hit share may differ from the screen's.

SMILES	Anaer choline gr	Anaer choline gr early
COc1ccc(NS(=O)(=O)c2c(C)nn(-c3ccc(-c4ccc(C)c(C)c4)nn3)c2C)cc1OC	i	0.81
Cc1ccc(-c2nc(CN3CCCC(C(=O)Nc4ccc(F)cc4)C3)no2)cc1 (stereo not given)	i	-1.26
CC(NC(=O)CSc1nc2ccccc2c(=O)[nH]1)c1nc2ccccc2[nH]1 (stereo not given)	i	-0.29
Cc1ccc(/C=C/c2onc(C)c2S(=O)(=O)N2CCC(C(=O)NCC3CCCO3)CC2)cc1 (stereo not given)	i	-0.18
CC1(C)C(=O)NCCN1C(=O)C1CCC1	i	-0.16
COc1ccc(NC(=O)C2CCN(c3nc4ccccc4nc3OC)CC2)c(OC)c1	i	0.45
CN(Cc1nnc(-c2ccccc2)o1)C(=O)Nc1ccc(Cl)cc1	i	-0.42
Cc1cc(Cl)ccc1NC(=O)C1CCCN(C(=O)c2ccccc2F)C1 (stereo not given)	i	-0.43
CCCCC(C)(C)[C@H](O)/C=C/[C@H]1C(=O)C[C@H](O)[C@@H]1C/C=C\CCCC(=O)O	i	-1.08
CCOC(=O)c1cc2c(OC)ccc(OC)c2n1CC(=O)c1ccccc1	i	0.44
COc1cccc(NC(=O)CCNS(=O)(=O)c2c(C)[nH]c(C)c2C(=O)N2CCCC2)c1	i	0.49
Cc1nc2ccccc2c(=O)n1Cc1noc(/C=C/c2ccccc2)n1	i	0.47

Six compounds picked at random from those above, as already listed:
SMILES	Anaer choline gr	Anaer choline gr early
Cc1ccc(/C=C/c2onc(C)c2S(=O)(=O)N2CCC(C(=O)NCC3CCCO3)CC2)cc1 (stereo not given)	i	-0.18
CN(Cc1nnc(-c2ccccc2)o1)C(=O)Nc1ccc(Cl)cc1	i	-0.42
CCOC(=O)c1cc2c(OC)ccc(OC)c2n1CC(=O)c1ccccc1	i	0.44
CCCCC(C)(C)[C@H](O)/C=C/[C@H]1C(=O)C[C@H](O)[C@@H]1C/C=C\CCCC(=O)O	i	-1.08
COc1ccc(NC(=O)C2CCN(c3nc4ccccc4nc3OC)CC2)c(OC)c1	i	0.45
Cc1nc2ccccc2c(=O)n1Cc1noc(/C=C/c2ccccc2)n1	i	0.47

Remaining list, next part.
SMILES	Anaer choline gr	Anaer choline gr early
CN(Cc1ccccc1)c1ccc2cc(S(=O)(=O)N3CCCCC3)ccc2n1	i	1.29
Brc1ccc(OCc2nn3c(C4COc5ccccc5O4)nnc3s2)cc1 (stereo not given)	i	-0.81
O=C(CN1CCN(C(=O)Nc2ccc(Cl)cc2)CC1=O)NCc1ccc(F)cc1	i	1.08
CN(C(=O)c1cccc(Nc2cc(-c3ccccc3)ncn2)c1)C1CCCCC1	i	-0.71
Cc1nc2nc(CNc3ccccc3)nn2c(C)c1Cl	i	-0.58
Cc1cc(-c2ccc(S(=O)(=O)N3CCN(c4ccccn4)CC3)c(C)c2)on1	i	0.44
CCOC(=O)c1[nH]c(C)c(CN(Cc2ccc(OC)cc2)C(=O)Nc2cc(OC)ccc2OC)c1C	i	0.8
Cc1ccc(CNS(=O)(=O)c2ccc(-c3cnc(C4CCC4)o3)s2)o1	i	-0.02
Cc1oc2ccc(O)c(CN3CCCC3)c2c1C(=O)Nc1ccccc1	i	0.24
COc1ccc(-c2cc3n(n2)CCCN(Cc2ccsc2)C3)cc1OC	i	0.18
c1cn(-c2ccc(-c3noc(-c4ccc5c(c4)OCO5)n3)cn2)cn1	i	-1.5
CCCCC[C@@H](O)/C=C/[C@@H]1[C@@H](C/C=C\CCCC(=O)O)[C@@H](O)C[C@H]1O	i	0.86

Grouped by structure, those above with a COOH group (2)
SMILES	Anaer choline gr	Anaer choline gr early
CCCCC(C)(C)[C@H](O)/C=C/[C@H]1C(=O)C[C@H](O)[C@@H]1C/C=C\CCCC(=O)O	i	-1.08
CCCCC[C@@H](O)/C=C/[C@@H]1[C@@H](C/C=C\CCCC(=O)O)[C@@H](O)C[C@H]1O	i	0.86

Later entries.
SMILES	Anaer choline gr	Anaer choline gr early
O=S(=O)(NCc1nc2cccnc2n1C1CCCC1)c1ccc(F)c(Cl)c1	i	0.2
O=C(c1cc(-c2cccnc2)n[nH]1)N1CCCC(C(=O)N2CCN(c3ccc(Cl)cc3)CC2)C1 (stereo not given)	i	1.44
CCCC(=O)N1CCC2(CC1)Nc1cc(F)ccc1-n1cccc12	i	-1.64
CCCc1ccc(S(=O)(=O)NCCn2c(C(F)(F)F)nc3cccnc32)cc1	i	-0.31
CC(=O)Nc1ccc(C)cc1-c1nc2ccccc2n(C(C)C(=O)Nc2cccc(C)c2C)c1=O (stereo not given)	i	0.43
Cc1oc2ncnc(N3CCCC(C(=O)Nc4ccccc4Cl)C3)c2c1C (stereo not given)	i	-0.48
CC(=O)N1CCC2(CC1)NCCc1[nH]cnc12	i	0.65
NC(=O)C1CCN(C(=O)c2cccc(-n3nnc4cccnc43)c2)CC1	i	0.78
CC(C)NC(=O)c1nsc(C(=O)NC2CC2)c1N	i	-0.21
CC(C)Cc1csc(-c2csc(S(=O)(=O)NCc3ccccc3F)c2)n1	i	1.07
COC(=O)c1ccccc1NC(=O)Cn1c(-c2nonc2N)nc2ccccc21	i	1.38
Cc1cc(F)ccc1Nc1c(C(=O)N2CCOCC2)cnc2ccccc12	i	-0.28
CCc1nnc(NC(=O)CCCc2nc(-c3ccccc3)no2)s1	i	-0.55
O=c1c(S(=O)(=O)N2CCCC2)cccn1Cc1ccccc1	i	1.23
Cc1csc2nc(CNS(=O)(=O)c3ccc(F)cc3)cn12	i	0.29
Cc1ccc(-c2nc(CSCC(=O)NCC3CC3)no2)cc1	i	-0.18
COC1CCN(C(=O)NC(C)C)CC1	i	1.1
Cc1ccc(NC(=O)NCCCn2c(-c3ccc(F)cc3)nc3cccnc32)cc1F	i	0.63
CCSc1nc2ccc(NS(=O)(=O)c3ccc(F)cc3Cl)cc2s1	i	-0.12
CCCn1c(=O)c2ccc(C(=O)NC(C)C)cc2n2c(=O)n(CC(=O)NC3CCCC3)nc12	i	0.31
Cn1c(=O)n(C)c2cc(CNCCc3ccc(S(N)(=O)=O)cc3)ccc21	i	0.63
CCOc1ccc(NC(=O)c2cc(=O)c3cc(CC)ccc3o2)c2cccnc12	i	0.14
Cc1nc(C(N)=O)c2c(n1)n(-c1ccc(F)cc1)c(=O)n2C	i	-0.53
CCc1cc2c(Nc3cccc(OC)c3)ncnc2s1	i	-1.67
COc1cc(NC(=O)C2CCCN2S(=O)(=O)c2ccc3c(c2)CC(C)N3C(C)=O)cc(OC)c1 (stereo not given)	i	0.49
Brc1[nH]nc2ncnc(N3CCN(c4ncccn4)CC3)c12	i	-0.33
Cc1ccc(S(=O)(=O)Cc2noc(-c3ccc(Br)cc3)n2)cc1	i	0.47
O=C(c1cc2ccc3cccnc3c2[nH]1)N1CCC(N2CCCCC2)CC1	i	1.33
CCN(CC)C(=O)c1cc(NS(=O)(=O)CC)cnc1N1CCNCC1	i	0.05
CCn1cnnc1C1CCCN(Cc2ccc3cc[nH]c3c2)C1 (stereo not given)	i	0.02
O=C(NCc1ccc2c(c1)CCCN2C(=O)C1CCC1)C1CCCCC1	i	-0.43
COc1ccccc1NC(=O)C1=C(C)C(=O)OC12CCN(S(C)(=O)=O)CC2	i	-1.37
Cc1nnc(-c2ccc3c(c2)OCO3)o1	i	-1.45
O=C(Nc1ccc(OCc2cc(C(=O)NCc3ccccc3)no2)cc1)c1ccccc1	i	-1.02
COC(=O)c1ccc2c(=O)n(-c3ccc(Cl)cc3)c(N3CCCC3)nc2c1	i	0.06
CCOc1ccc(NC(=O)c2cccnc2)cc1	i	0.63
Cc1ccc(-n2ccnc(SCC(N)=O)c2=O)cc1C	i	-1.01
O=S(=O)(c1cccc2nsnc12)N1CCC2(CC1)Nc1cc(F)ccc1-n1cccc12	i	0.51
CN(C)S(=O)(=O)c1ccc(-c2nc(C#N)c(NCC3CCCO3)o2)cc1 (stereo not given)	i	1.41
CC(C)CCNC(=O)N1CCC2(C1)C(=O)N(C)c1ccccc12 (stereo not given)	i	-0.21
Cc1cc(-c2nn3c(C4COc5ccccc5O4)nnc3s2)no1 (stereo not given)	i	1.78
COc1ccc(C(=O)CSc2nc(=O)n(C3CCS(=O)(=O)C3)c3c2CCC3)cc1OC (stereo not given)	i	0.21
Cc1ccc(O)c(NC(=O)CSc2nnc(-c3cc4ccccc4o3)n2Cc2ccccc2)c1	i	0.83
Cc1nn(-c2ccc3nnc(C)n3n2)c2c1C(c1ccccc1OC(C)C)CC(=O)N2 (stereo not given)	i	-0.56
CN(C)c1ccc(C(CNC(=O)c2ccc3c(c2)OCO3)N2CCN(c3ccccc3)CC2)cc1 (stereo not given)	i	0.19
CC(C)n1cnc2nc(CSc3ccc(NC(=O)c4ccc(Cl)cc4)cc3)cc(=O)n21	i	1.28
CCn1nnc2c(NCc3ccco3)ncnc21	i	-2.46
CC1CC(C)CN(CC2CCN(C(=O)Nc3ccc4c(c3)OCO4)CC2)C1 (stereo not given)	i	0.59
Cc1nnc(-c2csc(S(=O)(=O)N3CCN(C)CC3)c2)o1	i	-1.01
Cc1ccc(-c2noc(CCC(=O)N3CCOCC3)n2)c(=O)n1C(C)C	i	0.47
COC(=O)C(C)NC(=O)N1CCOc2ccc(COCc3ccccc3F)cc2C1 (stereo not given)	i	-1.19
Cc1ccc(C)c(S(=O)(=O)N(C)CCc2noc(COc3ccc(Cl)cc3)n2)c1	i	0.8
O=C(NCc1ccccn1)c1ccc2c(c1)nc1n2CCCC1	i	-0.56
Cc1cc(N(C)C)nc(Nc2ccc(NC(=O)CC(C)(C)C)cc2)n1	i	1.91
CCn1c(=O)c(-c2noc(CCC(=O)Nc3cccc(Cl)c3)n2)nn(-c2ccccc2)c1=O	i	-1.32
Cc1ccc(Nc2cc(C)nc(N3CCN(C(=O)Nc4ccccc4)CC3)n2)cc1	i	0.23
Cc1noc2ncn(Cc3ccccc3)c(=O)c12	i	-1.82
CC1=C(c2ccc(C)c(C)c2)S(=O)(=O)N(Cc2ccc(C(=O)NCCN3CCCC3)cc2)C1=O	i	-0.5
COc1ccc(OC)c(CNC(=O)C2CCN(c3ncnc4c3oc3ccccc34)CC2)c1	i	0.07
CCN1CCC[C@H]1CNC(=O)c1cc(S(N)(=O)=O)ccc1OC	i	0.23&0.69&0.65

Continued:
SMILES	Anaer choline gr	Anaer choline gr early
Cc1ccc(Oc2ccc(-c3noc(-c4cnccn4)n3)cc2)cc1	i	1.24
COc1cccc(CS(=O)(=O)c2ccc3c(c2)S(=O)(=O)N=CN3)c1	i	-0.07
CC(=O)N1CCC2(CC1)OC(=O)C(C)=C2C(=O)NCCCN1CCN(C2CCCCC2)CC1	i	1.11
Cc1cc(C)cc(-n2nnc(C(=O)OCc3ccccc3)c2C)c1	i	0.16
CCC(=O)OCc1cnc(C)c2oc(=O)c(-c3nc(-c4ccc5c(c4)OCO5)no3)cc12	i	-0.07
COc1ccc(C(=O)Nc2c(C)nc(Nc3ccccc3)nc2Nc2ccccc2)cc1	i	0.34
Cc1cc(C(=O)N2CCCC2c2cc(C(C)C)on2)on1 (stereo not given)	i	0.07
CCOCCCNCc1ccc(-c2ccc(Cl)cc2Cl)o1	i	-2.29
CCC(C(=O)Nc1ccccn1)N1CCN(Cc2ccc(F)cc2)C(=O)C1=O (stereo not given)	i	-0.29
CCn1cc(C(=O)O)c(=O)c2cnc(N3CCCC3)nc21	i	-0.58
CCn1cc(C(=O)O)c(=O)c2cc3c(cc21)OCO3	i	0.26&-3.83
CCn1c(=O)oc2cc(S(=O)(=O)N3CCN(C(=O)c4cc5cc(Cl)ccc5[nH]4)CC3)ccc21	i	0.31
CCN(CC)CCCNC(=O)CC1CCN(S(=O)(=O)c2ccccc2)CC1	i	0.18
CC(C)NCC(O)c1ccc2ccccc2c1 (stereo not given)	i	0.29&0.02&0.02
O=C(NC1CCCCC1)N1CCc2cc(S(=O)(=O)N3CCCc4ccccc43)ccc21	i	0
CCCN1CCN(C(=O)C2CCCN(S(=O)(=O)c3cc(-c4noc(CC)n4)cs3)C2)CC1 (stereo not given)	i	0.75
CC(C)n1cnc2nc(COc3ccccc3NC(=O)Nc3cccc(Cl)c3)cc(=O)n21	i	-0.55
COc1ccc(N2CCN(C(=O)C3CCN(S(=O)(=O)c4cn(C)c(C)n4)CC3)CC2)cc1	i	-0.47
CC1=C(c2ccccc2)S(=O)(=O)N=C1N1CCCN(C(=O)NC(C)(C)C)CC1	i	-0.05
O=C(NC1CC1)c1nc(Nc2ccc(F)cc2)c2ccccc2n1	i	3.69
Cc1ccccc1CCNC(=O)COc1ccccc1-c1nnc(-c2ccccc2)o1	i	-1.35
COCCNC(=O)c1ccc2c(=O)n(Cc3ccccc3)c(SCC(=O)c3ccc(Cl)cc3)nc2c1	i	0.74
CNC(=O)N1CCC(Oc2ccc(Cl)cc2)CC1	i	-1.53
CCOc1ccc(NC(=O)C2Nc3cc(F)ccc3S(=O)(=O)N2)cc1 (stereo not given)	i	0.14
Cn1c(=O)c(=O)n(C)c2cc(S(=O)(=O)C3CCCCC3)c(NC(=O)c3ccccc3Cl)cc21	i	0.13
CNC(=O)c1nc(Nc2ccc(F)cc2)c2ccccc2n1	i	-0.87
COc1ccc(NS(=O)(=O)c2cc(-c3nc(C(C)(C)C)cs3)cs2)cc1Cl	i	-0.33
O=c1nc(SCc2ccccc2F)c2c(n1Cc1ccccc1)CCC2	i	0.22
CCCNC(=O)Nc1cccc(-c2noc(Cc3ccc(Cl)cc3)n2)c1	i	0.96
O=C(NCc1ccc(F)cc1)c1nnc2ccc(-c3ccccc3)nn12	i	-0.7
COCCNC(=O)NC1CCCN(c2cc(N3CCCC3)ncn2)C1 (stereo not given)	i	1.63
O=C(Cc1cccc(F)c1)Nc1nnc(SCc2nnc(-c3ccccc3)o2)s1	i	-0.09
CS(=O)(=O)Nc1ccc2c(c1)N(C(=O)c1ccccc1)CCC2	i	-1.13
CCC(C)C(=O)OC1CC(O)C=C2C=CC(C)C(CCC(O)CC(O)CC(=O)O)[C@H]21 (stereo not given in full)	i	0.39
Cc1nc(OCC(=O)NC(C)C)c2c(C)c(C)oc2n1	i	0.58
